Screening results as filed in PubChem BioAssay.
2A firefly: lowers the firefly signal of an FMDV 2A StopGo reporter | HEK cells with a luciferase reporter of 2A StopGo recoding | Potency, µM (top dose mostly 57.5 µM), without a hit: at the top dose signal change, negative = less light | actives 0.23% (n = 120,000); active = well fitted falling curve with a large enough effect; inconclusive = small, poorly fitted or top-dose-only effect; inactive = no such curve, though single readings can be large or run the other way; note: nearly all actives have a fitted effect of over 60% in size; overnight with compound
StopGo RLuc: FMDV 2A StopGo reporter, Renilla signal; actives 0.32% (n = 120,000); AID 1745857; HEK cells with a luciferase reporter of 2A StopGo recoding; Potency, µM (highest dose often 57.5 µM), inactives show at the top dose signal change, negative = less light; active means well fitted falling curve with a large enough effect; inconclusive means small, poorly fitted or top-dose-only effect; inactive means no such curve, though single readings can be large or run the other way; note: nearly all actives have a fitted effect of over 55% in size; overnight with compound
* marks the source's active call; other numbers are inactive results; u = inconclusive; & = joins results of further samples; [ ] = another dose, or the depositor's remark. % is set by controls: 0 for no effect and ±100 for the full control effect; potency is the fitted concentration of half-maximal effect.

SMILES | 2A firefly | StopGo RLuc
Cc1cccc(-c2noc(-c3ccc(I)cc3)n2)c1 | 136%[activator] | 2%
CCc1ccc(C(=O)NCCOC)o1 | 0% | 17%
O=C(CSc1nnc2ccc(-c3cccnc3)nn12)NC1CCCCC1 | 20% | 5%
CC(C)(C)c1ccc(-c2nnc3sc(-c4ccc5c(c4)OCO5)nn23)cc1 | 92%[activator] | 10%
CCc1ccc(/C=C(/C#N)C(=O)c2c(C)[nH]c3ccccc23)cc1 | -8% | -10%
C=CCN1C[C@H](C)N([C@H](c2ccc(C(=O)N(CC)CC)cc2)c2cccc(OC)c2)C[C@H]1C | -10%[11.5 µM] | 6%
CCCCSc1nnc2c(n1)OC(C)N(C(C)=O)c1ccccc1-2 (stereo not given) | -3% | 5%
Cc1c(C(=O)O)sc2ccccc12 | 0% | 8%
COc1cc(CNC(=O)CCCc2cccs2)ccc1OCc1cccnc1 | 2% | -9%
O=C(CCc1ncc(-c2ccc(Cl)cc2)o1)Nc1ccccc1O | 2% | 32%
COc1ccccc1C(=O)Nc1c(C(=O)N(C)Cc2ccccc2)sc2nc(C)c(Cl)c(C)c12 | -11% | 193%[activator]
CN(CC(=O)Nc1ccccc1C(F)(F)F)C(=O)CSc1nccn1-c1cccc(F)c1 | 0% | -7%
CCC(=O)N1CCc2cc(S(=O)(=O)NCCC(=O)Nc3cccc(C)c3C)ccc21 | 6% | 4%
O=C(Cn1cc(S(=O)(=O)c2ccc(Cl)cc2)c(=O)c2ccccc21)Nc1ccc2c(c1)OCO2 | -26% | -12%
CC(OC(=O)c1csc(NCc2ccccc2)n1)C(=O)N1CCNC1=O (stereo not given) | -7% | -8%
Cc1cc(C(=O)COC(=O)c2ccco2)c(C)n1Cc1ccccc1 | 43%[activator] | 12%
Cc1cccc(C(C)C)c1NC(=O)CSc1ncnc2ccccc12 | 7% | -7%
N#CCc1c(C#N)c(N)nc(NCc2ccccc2)c1C#N | -10% | -8%
O=C(OCc1cccc(Br)c1)c1cccc(O)c1 | 40%[activator] | 12%
CC(=O)Nc1ccc(/C=C/C(=O)C23CC4CC(CC(C4)C2)C3)cc1 | 8% | 42%[activator]
CC(NC(=O)c1cc(-c2ccco2)nc2ccccc12)c1ccccc1 (stereo not given) | 16% | 0%
CCc1ccccc1NC(=O)CCn1nc(C)c2c(C)n(-c3ccccc3)nc2c1=O | -17% | -7%
Cc1ccc(-c2nc3ccc(Cl)cn3c2Nc2ccc3c(c2)OCCO3)o1 | 56%[activator] | 0%
CC(C)c1ccc(S(=O)(=O)NCC(c2cccs2)N(C)C)cc1 (stereo not given) | 27% | 239%[activator]
CSc1cccc(NC(=O)/C=C/c2cccc(F)c2)c1 | 199%[activator] | -5%[1.06 µM]

Next section
SMILES | 2A firefly | StopGo RLuc
O=C(CN1C(=O)C2CCCCN2c2ccc(C(=O)N3CCCC3)cc21)NCc1ccccc1F (stereo not given) | 19% | 0%
COc1cccc(C2(CC#N)CCOC(C)(C)C2)c1 (stereo not given) | -7% | 16%
O=C(O)[C@H](O)[C@@H](O)[C@H](O[C@@H]1O[C@H](CO)[C@H](O)[C@H](O)[C@H]1O)[C@H](O)CO | -10% | -4%
Cc1ccc(C)c(S(=O)(=O)c2cn(Cc3ccccc3)c3cc(F)c(F)cc3c2=O)c1 | -13% | 96%[activator]
COc1cc(OC)c(NC(=O)C(Cc2ccccc2)NS(=O)(=O)c2cccc3nsnc23)cc1Cl (stereo not given) | 10% | 95%[activator]
COCc1nc(-c2ccc3c(c2)OCCCO3)cs1 | 0% | 18%
COc1cccc(C(=O)N2CCC(N3CCN(Cc4ccc(F)cc4)C(=O)C3=O)CC2)c1 | -8% | -6%
Cc1ccc(SCC(=O)NC(C)(C#N)C2CC2)cc1C (stereo not given) | 22% | 20%
Cc1ccc(-c2cnc(SCC(=O)Nc3ccc(F)cc3)o2)cc1C | 17% | -6%
COc1cc(OC)cc(C(NC(=O)Cc2n[nH]c(=O)c3ccccc23)c2nccn2C)c1 (stereo not given) | 2% | -4%
Cc1cccn2c(=O)cc(CSc3nnc(NC(=O)c4ccc(F)cc4)s3)nc12 | -5% | -6%
CCc1ccc(/C=C(\C#N)C(=O)Nc2sc(C(=O)N(C)C)c(C)c2C#N)s1 | 11% | 0%
CC(=O)c1ccc(NC(=O)COc2ccccc2-c2nc(C(C)C)no2)cc1 | 0% | -5%
CCNc1c(NC(=O)Nc2ccccc2C(F)(F)F)c(=O)oc2ccccc12 | 11% | -1%
O=C(Nc1ccc(Cl)cc1)N(Cc1cccc(O)c1)C1CCC(O)CC1 (stereo not given) | 23% | -13%
O=C(O)c1cnc(/C=C/c2cc(Cl)c3c(c2)OCCCO3)s1 | 24% | -2%
CCN(CC(=O)Nc1ccc2c(c1)OCCO2)Cc1cc(=O)oc2c(C)c(C)ccc12 | 16% | 55%[activator]
CCOC(=O)c1ccc(OCC2CCCO2)cc1 (stereo not given) | 170%[activator] | -9%
CCCCC(CC)C(=O)NCCCCCCCCNC(=O)C(CC)CCCC (stereo not given) | 24% | 3%
O=C(Nc1ccc(F)cc1F)c1cc(-c2ccc(Cl)cc2)on1 | 2% | -11%
Cc1cccc(NC(=O)CSc2nnc3[nH]c(=O)cc(-c4ccccc4)n23)c1C | 34% | 14%
Cc1ccc(C(=O)NC2(C(F)(F)F)C(=O)Nc3c2c(=O)[nH]c(=O)n3Cc2ccco2)cc1 (stereo not given) | -12% | -10%
CC(=O)c1ccc(C(=O)O)s1 | -7% | -3%
O=C(CCCNC(=O)c1ccc(Cl)cc1)NCc1cccc(C(F)(F)F)c1 | 1% | -2%
CC(=O)Nc1ncc2c(n1)CC(c1ccc(C(C)(C)C)cc1)CC2=O (stereo not given) | 0% | -5%

Carrying on.
SMILES | 2A firefly | StopGo RLuc
Cn1c(=O)c2c(nc(Oc3ccccc3)n2Cc2c(Cl)cccc2Cl)n(C)c1=O | -11% | -4%
CSc1cccc(NC(=O)c2ccc(C)c(F)c2)c1 | 218%[activator] | -9%[1.06 µM]
CCOc1ccc(C(=O)N2CCC(c3nc4ccccc4o3)CC2)cc1 | 0%&-26% | 11%&32%
O=C(CCc1c[nH]c2ccccc12)NCc1ccc(Cl)cc1 | -6% | -5%
Cc1cccc(C2CC(=O)Oc3c2c(=O)oc2ccccc32)c1 (stereo not given) | 1% | 19%
O=C(Cn1cccc(C(F)(F)F)c1=O)Nc1cccc(OC(F)(F)F)c1 | 16% | 19%
O=C(NCC(c1ccc2c(c1)OCO2)N1CCOCC1)C(=O)Nc1cccc(Cl)c1 (stereo not given) | -18% | -12%
CCOc1ccc2c(c1)cc(C(=O)Nc1ccccc1OC)n2C | 0% | 9%
Cc1cccc(NS(=O)(=O)c2ccc(C(=O)NCC(c3ccccc3)N(C)C)cc2)c1C (stereo not given) | 4% | 1%
CCCOc1ccccc1C(=O)Nc1cccc(-c2nc3ccccc3o2)c1 | 4% | -5%
CSc1ccc(-c2c/c(=N\c3nc(-c4ccccc4)c(C)s3)c3ccccc3o2)cc1 | 9% | 10%
CCCCNC(=O)CN1C(=O)COc2ccc(S(=O)(=O)N3CCCCCC3)cc21 | -8% | 24%
COc1cc(C(=O)OCc2ccccc2C#N)ccc1C | 91%[activator] | 9%
O=C(Nc1ccccc1C(F)(F)F)N1CCC(CN2CCc3ccccc3C2)CC1 | 3% | 1%
Cc1ccc(CNCc2ccco2)cc1 | 0% | 9%
CCCOc1ccc(C(=O)NC2CCCCNC2=O)cc1OCC (stereo not given) | -9% | 3%
CC(C)CNC(=O)c1nc(-c2ccc3cc[nH]c3c2)no1 | 61%[activator] | 7%
COC(=O)c1ccc(CN(C)CC2CC2)cc1 | 16% | 16%
COc1ccc2oc(=O)cc(CN3CCN(Cc4ccccc4)CC3)c2c1 | -12%&-5% | -16%&-9%
Cc1ccc(-n2nc(C(=O)Nc3ccc(C)c(F)c3)c3c4ccccc4n(C)c3c2=O)cc1 | 0% | -11%
COc1cc(C2CC(=O)Nc3c2c(=O)n(C)c(=O)n3C)cc(OC)c1OC (stereo not given) | -20% | -18%
CC(C)C(NC(=O)C1CCCCC1C)C(=O)O (stereo not given) | 9% | 7%
CCn1c(C(=O)N2CCCC(C(=O)NCCCOC)C2)cc2sccc21 (stereo not given) | -15% | -17%
CCc1cccc2c(C(=O)O)c[nH]c12 | -4% | 2%
CCN1c2ccccc2-c2nc(SCC(=O)Nc3cc(C)c(Cl)cc3OC)ncc2S1(=O)=O | -21% | -19%

(listing goes on)
SMILES | 2A firefly | StopGo RLuc
C=CCNc1nc(C(=O)OCc2cccc(F)c2F)cs1 | -1% | -4%
O=C(Nc1cccc(C(F)(F)F)c1)c1cc(N2CCCCS2(=O)=O)ccc1Cl | u | u
Cc1ccc(Sc2oc(/C=C(/C#N)c3nc4ccccc4[nH]3)cc2Br)cc1 | 10% | 43%[activator]
COc1ccc(-c2nnc(SCc3csc(Nc4ccccc4)n3)o2)cc1OC | 55%[activator] | 26%
CC(=O)c1ccc(C(=O)N2CCN(C(c3ccc(F)cc3)c3ccc(F)cc3)CC2)s1 | -16% | -3%
C=CCN(Cc1ccc2c(c1)OCO2)C(C#Cc1ccccc1)c1ccccc1C(F)(F)F (stereo not given) | 2% | 4%
CCCCCCn1nc(C(=O)N(CC)CC(=O)Nc2c(F)cccc2F)c2ccccc2c1=O | u | u
COc1cccc(CN(C(=O)c2oc3c(C)c(C)ccc3c2C)C2CCS(=O)(=O)C2)c1 (stereo not given) | -18% | 49%[activator]
CCN1CCCC1CNCC1CCCCC1 (stereo not given) | 3% | 4%
CCCCOc1ccc(NC(=O)C(C)Oc2ccccc2F)c2cccnc12 (stereo not given) | 17% | 12%
CN(C)C(=O)CNC(=O)c1nn(C)c(=O)c2ccccc12 | 11% | -2%
CC(=O)Nc1ccc(I)cc1C | -1% | -1%
O=C(Cn1nc(N2CCCCC2)c2ccccc2c1=O)Nc1ccc2c(c1)OCCO2 | 5% | -8%
O=C(NC(=S)NCCC1=CCCCC1)c1cccs1 | 107%[activator] | 11%
O=C(CCS(=O)(=O)c1ccc(Cl)cc1)OCc1ccccc1 | 2% | 0%
COC(=O)c1ccn(Cc2c(Cl)cccc2Cl)n1 | 163%[activator] | 0%
CC(C)Cc1nnc(NC(=O)c2cc(=O)c3cc(Cl)cc(Cl)c3o2)s1 | 9% | -6%
Cc1ccc(NC(=O)[C@H]2O[C@@H]3OC(C)(C)O[C@@H]3[C@H]3OC(C)(C)O[C@H]32)cc1F | -9% | -10%
CC(C)Oc1ccc(CNC(=O)CCn2c(=O)c3cccn3c3ccc(F)cc32)cc1 | -15% | 6%
O=C(Nc1cn[nH]c1)C1CCN(c2ccc(C(F)(F)F)cn2)CC1 | -16% | -21%
c1ccc2c(c1)OCCOCCOCCOCCO2 | 14% | 6%
CN(C)c1ccc(CNC(=O)CN2CCSc3ccc(S(=O)(=O)N(C)C)cc32)cc1 | 1% | 20%
CCOc1ccc(NC(=O)C(CC)Oc2ccccc2F)c2cccnc12 (stereo not given) | -4% | -7%
Cn1c(=O)oc2cc(NC(=O)Nc3ccc(F)c(Cl)c3)ccc21 | 46%[activator] | 0%
CCOC(=O)C1CCCN(C(=O)Cn2ncc3c([nH]c4ccccc43)c2=O)C1 (stereo not given) | -18% | -22%
CCOc1ccc(-c2cc(C(=O)Nc3nnc(CC)s3)no2)cc1 | 17% | 3%
CC(CCc1ccccc1)NC(=O)c1ccc2nc(N3CCOCC3)sc2c1 (stereo not given) | 23% | -8%

This is a random part of the collection. Share with any hit: about 0.53%.
